Sa helicase inh = inhibitors of S. aureus replicative helicase, primary screen, biochemical, fluorescence unwinding readout. purified S. aureus helicase, fluorescence unwinding assay; about half of the hits fall short of the stated cut. inhibition, %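 (tested at about 80 µM)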. actives 0.05% (n = 120,000). AID 485395, 2010;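 active = both duplicates at 50% or more, or one of them with a favoured structure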;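 note: 0% = mean of negative control wells and 100% = mean of positive control wells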
MgrA DNA FP = S. aureus MgrA activity modulators, primary screen, biochemical, S. aureus Newman, fluorescence polarization. inhibition, %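 (about 10 µg/mL by stock and volumes)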. actives 0.13% (n = 84,000). MgrA-DNA binding;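 active = above 50% in either of two replicates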;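 note: 0% = protein plus DNA without compound and 100% = DNA alone without protein; higher means less MgrA bound to DNA so lower polarization; one replicate is shown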
* hit, by the source's call. These rows are one share of the data, so the mix of outcomes need not match the whole.

For Cn1cnnc1Sc1nc2c(c(=O)n(C)c(=O)n2C)n1Cc1ccc(Cl)cc1Cl the results were MgrA DNA FP -1.9.
Cc1ccc(Oc2ncccc2[N+](=O)[O-])c2c1CCC2 was read as MgrA DNA FP -1.6.
CC(C)(C)Nc1ncnc2c1cnn2-c1ccc(Cl)cc1 was read as Sa helicase inh 7 and MgrA DNA FP 0.1.
CC(C)CCNC(=O)c1nnc(Cc2ccc(Cl)cc2)o1 was read as Sa helicase inh 11 and MgrA DNA FP 0.2.
Screening O=C1CSC(N=Nc2c(O)[nH]c3ccccc23)=N1 returned Sa helicase inh 33.
For O=C(COC(=O)CC1CC2CCC1C2)NCc1ccc(F)cc1 (stereo not drawn) the results were Sa helicase inh -10 and MgrA DNA FP 1.2.
COc1ccc(C(=O)CSc2nnc(-c3ccc4c(c3)OCO4)n2-c2ccccc2)cc1 was read as MgrA DNA FP 2.2.
Screening C=C(C)C(=O)Nc1ccc(-c2nc3cc(NC(=O)C(=C)C)ccc3o2)cc1 returned Sa helicase inh -6.
`Cc1noc(C)c1S(=O)(=O)N1CC(C)OC(C)C1` (stereo not drawn) gave MgrA DNA FP -4.1.
Screening CCN(c1ccc(OC)cc1)S(=O)(=O)c1ccc(-c2cc(C(F)(F)F)no2)s1 returned Sa helicase inh 10.
`Cc1onc(-c2ccccc2Cl)c1C(=O)OCC(=O)c1ccccc1` gave Sa helicase inh 33.
For O=C(O)c1cc(C(=O)O)c2cc(Cl)ccc2n1 the results were Sa helicase inh 8.

The closing 5 records of the part above lead into the next:
Screening C=C(C)C(=O)Nc1ccc(-c2nc3cc(NC(=O)C(=C)C)ccc3o2)cc1 returned Sa helicase inh -6.
`Cc1noc(C)c1S(=O)(=O)N1CC(C)OC(C)C1` (stereo not drawn) gave MgrA DNA FP -4.1.
Screening CCN(c1ccc(OC)cc1)S(=O)(=O)c1ccc(-c2cc(C(F)(F)F)no2)s1 returned Sa helicase inh 10.
`Cc1onc(-c2ccccc2Cl)c1C(=O)OCC(=O)c1ccccc1` gave Sa helicase inh 33.
For O=C(O)c1cc(C(=O)O)c2cc(Cl)ccc2n1 the results were Sa helicase inh 8.
`Cc1ccc(C)c(-c2nnc(NC(=O)C3CC3)o2)c1` gave Sa helicase inh 13.
c1cc2c(cc1-n1nnnc1SCC1CC1)OCO2 was read as Sa helicase inh -2 and MgrA DNA FP 0.5.
For CCc1ccc(NC(=O)c2cc(C3CC3)on2)cc1 the results were Sa helicase inh -1.
`Cc1cc(C)n(-c2ccc(S(N)(=O)=O)cc2)n1` gave MgrA DNA FP -3.2.
Screening N#Cc1ccccc1NC(=O)CSc1ncnc2ccccc12 returned Sa helicase inh -15.
`Cc1oc2cc(O)ccc2c(=O)c1-c1ccc(Br)cc1` gave Sa helicase inh 15 and MgrA DNA FP 3.2.
CCCC(=O)Nc1nnc(SCC(=O)N2CCc3ccccc32)s1 was read as Sa helicase inh -5.
Screening O=c1c2cc(NC(=S)NCc3ccc4c(c3)OCO4)ccc2nc2n1CCCCC2 returned Sa helicase inh 39.
For O=C1CSc2nc(-c3ccccc3)c(-c3ccccc3)n21 the results were MgrA DNA FP -1.4.
Screening O=C1CC(=O)N(Cc2cccs2)C(=O)N1 returned Sa helicase inh -4 and MgrA DNA FP -5.5.
For Cc1cc(=O)cc(C)n1-c1ccc2c(c1)nc(C)n2-c1ccccc1 the results were Sa helicase inh -6 and MgrA DNA FP -2.7.
Screening COc1ccc(N(C(C)C(=O)NC2CC2)S(=O)(=O)c2cccc(C)c2)cc1 (stereo not drawn) returned Sa helicase inh -6.
COC(=O)C1(C#N)C(C)(C)C1(C#N)C(=O)OC (stereo not drawn) was read as Sa helicase inh 15 and MgrA DNA FP -4.2.
`Cc1cc(=O)oc2cc(Oc3nc(-c4cccnc4)nc4ccccc34)ccc12` gave Sa helicase inh 15.
For COc1ccccc1C(=O)Nc1ccc(O)cc1 the results were Sa helicase inh 26.
For c1ccn2cc(CN3CCOCC3)nc2c1 the results were Sa helicase inh 19.
O=C(NCC1(c2ccccc2)CCOCC1)c1ccc(Br)cc1 was read as Sa helicase inh 4 and MgrA DNA FP 1.6.
`CCC1CCCCN1CCCNC(=O)c1ccc(Sc2ccc(C)cc2)c(NC(C)=O)c1` (stereo not drawn) gave Sa helicase inh 15 and MgrA DNA FP 2.5.
`Nc1nonc1-n1nnc(C(=O)N=Nc2c(O)[nH]c3ccc(Br)cc23)c1-c1ccccc1` gave Sa helicase inh 4 and MgrA DNA FP -0.5.
Screening N#CCC(=O)NC1CC1 returned Sa helicase inh -2 and MgrA DNA FP -0.2.
N#C/C(=C\C=C\c1ccccc1)c1nc2ccccc2[nH]1 was read as MgrA DNA FP 9.2.
Screening O=C1NC2=C(C(=O)OC2)C(c2cccs2)N1 (stereo not drawn) returned Sa helicase inh 16.
Screening O=C(CC(C(=O)O)c1c[nH]c2ccccc12)c1ccccc1 (stereo not drawn) returned Sa helicase inh 17.
Screening c1ccc(-c2nc3sccn3c2COc2ncnc3ccccc23)cc1 returned Sa helicase inh 0.
Screening CCNc1nc(NCC)n2c(SCC(=O)N(c3ccccc3)C(C)C)nnc2n1 returned MgrA DNA FP 0.1.
`CCN(CC)c1ccc(C2Nc3ccccc3-c3cc(C)nn32)c(O)c1` (stereo not drawn) gave Sa helicase inh -30.
For CCOc1ccc(S(=O)(=O)N2CCCCC2C)c2ccccc12 (stereo not drawn) the results were Sa helicase inh -4 and MgrA DNA FP 2.2.
For Cc1cc(C)c(C)c(C(=O)COC(=O)c2ccc(-n3c(C)ccc3C)cc2)c1C the results were Sa helicase inh -1 and MgrA DNA FP -0.1.
For O=C(O)c1ccc(CN2CCCC2=O)cc1 the results were Sa helicase inh 15.
`CN(C)C(=O)CSc1ncnc2ccccc12` gave Sa helicase inh -26.
`COc1ccccc1OCCCn1cc(C#N)c2ccccc21` gave Sa helicase inh -2 and MgrA DNA FP 1.0.
FC(F)(F)c1cc(-c2cccs2)n[nH]1 was read as Sa helicase inh -24.
`Cc1cc(=O)n2c(C)csc2c1C#N` gave Sa helicase inh 7.
For COC(=O)c1c(N)n(-c2ccc(N3CCOCC3)cc2)c2nc3ccccc3nc12 the results were Sa helicase inh 12.
Cc1ccccc1Oc1ccc(S(=O)(=O)N2CCOCC2)cc1 was read as Sa helicase inh 24.
`CC(SCC(=O)Nc1nc(-c2ccccc2)cs1)C(=O)O` (stereo not drawn) gave Sa helicase inh -6.
For COC(=O)c1cccnc1Sc1ccc(C)cc1 the results were MgrA DNA FP 1.5.
For CCOc1cc(C=C2C(=O)NC(=S)NC2=O)ccc1OCCOc1cccc(C)c1 the results were MgrA DNA FP 34.
Cn1nnc2cc(C(=O)N(CCO)c3ccccc3)ccc21 was read as Sa helicase inh 5 and MgrA DNA FP 2.4.
For CC1CCc2nn(CC(=O)N3CCN(C(=O)c4ccco4)CC3)cc2C1 (stereo not drawn) the results were Sa helicase inh -13.
`O=C(c1c(O)c2ccccc2oc1=O)C1CCC1` gave Sa helicase inh 5 and MgrA DNA FP 1.9.
COc1ccc(NC(=O)/C=N/O)cc1 was read as MgrA DNA FP 1.6.
CCOC(=O)C1CCCN(C(=O)c2cc(-c3ccc(OC)c(OC)c3)no2)C1 (stereo not drawn) was read as Sa helicase inh 9.
Screening Cc1nc(NCC2CCCO2)c2nnn(Cc3c(F)cccc3Cl)c2n1 (stereo not drawn) returned Sa helicase inh -4 and MgrA DNA FP 0.1.
Screening COc1ccc(C(=O)COC(=O)c2cccc(N3C(=O)C4C5C=CC(C5)C4C3=O)c2)cc1 (stereo not drawn) returned MgrA DNA FP -1.4.
N/C(=N\O)c1cn(CCOc2ccccc2Cl)c2ccccc12 was read as Sa helicase inh 13 and MgrA DNA FP -0.2.
Screening Cc1noc(C)c1S(=O)(=O)N1Cc2ccccc2CC1C(=O)O (stereo not drawn) returned Sa helicase inh -6 and MgrA DNA FP 0.0.
c1ccc2c(c1)c1ccccc1n2CN1CCCCC1 was read as MgrA DNA FP 0.5.
COc1ccccc1C1N=C(c2ccc3c(c2)OCO3)CC(c2ccccc2O)N1 (stereo not drawn) was read as Sa helicase inh 7.
COc1ccc(N/C=C(\C#N)c2nc(-c3ccc4c(c3)OCO4)cs2)cc1 was read as Sa helicase inh 13.
For c1ccc(-c2cc(NCc3ccco3)n3c(n2)nc2ccccc23)cc1 the results were Sa helicase inh -33.
CCc1cccc(C)c1NC(=O)N1CCN(C(=O)OC(C)(C)C)CC1 was read as MgrA DNA FP 0.5.
`O=C(CCn1c(=S)[nH]c2ccsc2c1=O)NCCc1ccc(Cl)cc1` gave Sa helicase inh 10 and MgrA DNA FP 1.0.
Screening Cn1c(N)c(C(=O)NC2CCCCC2)c2nc3ccccc3nc21 returned Sa helicase inh 6 and MgrA DNA FP 0.0.
Screening COC(CNC(=O)Cn1nc(Cc2ccncc2)c2ccccc2c1=O)OC returned Sa helicase inh 9 and MgrA DNA FP -0.6.
`CC(C)CCN1CCC(CNS(=O)(=O)c2csc(C(N)=O)c2)CC1` gave Sa helicase inh -13.
Screening COC(=O)c1ccc(C(=O)OC)c(NC(=O)C(C(C)C)N2C(=O)c3ccccc3C2=O)c1 (stereo not drawn) returned Sa helicase inh 4.
For CC1CCCC(NC(=S)NC(=O)C2CC2)C1C (stereo not drawn) the results were Sa helicase inh -2.
For O=C(COC(=O)C1CCC1)NC12CC3CC(CC(C3)C1)C2 the results were Sa helicase inh -6 and MgrA DNA FP -0.8.
For Cc1ccc(Cn2ncc3ccccc32)cc1 the results were Sa helicase inh -9.
`COc1ccc(C(O)P(=O)(OC2CCCCC2)c2ccc(N(C)C)cc2)cc1OC` (stereo not drawn) gave Sa helicase inh 6.
For N#Cc1c(Cl)cccc1Oc1ccccc1 the results were MgrA DNA FP 0.4.
Nc1c(Cl)cc(Cl)cc1C(=O)OCC(=O)N1CCCCC1 was read as Sa helicase inh 15 and MgrA DNA FP -2.0.
O=C(NCc1csc(-c2cccs2)n1)c1ccc(F)cc1Cl was read as MgrA DNA FP -2.7.
`CCCC1CCCCCC1NC(C)=O` (stereo not drawn) gave Sa helicase inh -17 and MgrA DNA FP -0.2.
`CCNc1nc(Cl)nc(Oc2ccc(=O)n(-c3ccccc3)n2)n1` gave Sa helicase inh -2.
For Cc1ccc(S(=O)(=O)c2c(O)c3ccc(C(=O)NCc4ccccc4Cl)cc3[nH]c2=O)cc1 the results were Sa helicase inh 3 and MgrA DNA FP -3.3.
Screening Cc1cc(S(=O)(=O)N2CCCC2)ccc1OCC(N)=O returned Sa helicase inh -6 and MgrA DNA FP -0.1.
For Cc1ccc(SC#N)c(N)n1 the results were MgrA DNA FP 2.2.
CC(C)NC(=O)C1CCN(Cc2ccccc2Cl)CC1 was read as Sa helicase inh -8 and MgrA DNA FP -2.1.
Screening CC1CCc2sc(C(=O)O)cc2C1 (stereo not drawn) returned Sa helicase inh 6 and MgrA DNA FP 3.7.
For O=C(NC1Cc2ccccc2C1)c1nnc(-c2ccccc2)o1 the results were MgrA DNA FP -2.6.
Cc1ccc(C(=O)NCC(=O)O)cc1S(=O)(=O)N1CCCCC1 was read as Sa helicase inh 6 and MgrA DNA FP -0.3.
Cc1nc2c3ccccc3n(CC#N)c(=O)n2n1 was read as Sa helicase inh 3.
For CC[n+]1ccc(C)c2cc(C(F)(F)F)ccc21 the results were Sa helicase inh -10 and MgrA DNA FP 3.9.
NC(=O)Cn1ccn(Cc2ccc(Cl)cc2)c(=O)c1=O was read as Sa helicase inh 13.
`CC(C)(C)C(=O)NCCc1cn2ccccc2n1` gave Sa helicase inh 8.
For CCn1nnc2cc(C(=O)Nc3cccc(Cl)c3F)ccc21 the results were Sa helicase inh -2.
NCCc1nc(-c2ccccc2)cs1 was read as Sa helicase inh -2 and MgrA DNA FP -1.9.
Cn1ccsc1=NC(=O)c1cccnc1 was read as Sa helicase inh 1.
Screening CN(C)c1ccc(C2CC(=O)C=C(NCCc3ccccn3)C2)cc1 (stereo not drawn) returned MgrA DNA FP -0.8.
S=C(c1cn(Cc2ccc(Cl)cc2)c2ccccc12)N1CCCC1 was read as Sa helicase inh 8 and MgrA DNA FP 3.5.
CC1SCC(=O)N(c2ccc(Br)cc2)C1=O (stereo not drawn) was read as MgrA DNA FP 0.9.
Screening Cc1cc(=O)[nH]c(SC(C)C)n1 returned Sa helicase inh -1.

For reference, part of the list above:
Cc1ccc(C(=O)NCC(=O)O)cc1S(=O)(=O)N1CCCCC1 was read as Sa helicase inh 6 and MgrA DNA FP -0.3.
Cc1nc2c3ccccc3n(CC#N)c(=O)n2n1 was read as Sa helicase inh 3.
For CC[n+]1ccc(C)c2cc(C(F)(F)F)ccc21 the results were Sa helicase inh -10 and MgrA DNA FP 3.9.
NC(=O)Cn1ccn(Cc2ccc(Cl)cc2)c(=O)c1=O was read as Sa helicase inh 13.
`CC(C)(C)C(=O)NCCc1cn2ccccc2n1` gave Sa helicase inh 8.

(more compounds)
Screening COc1cc(OC)cc(C(=O)OCC(=O)N2CCC(C(N)=O)CC2)c1 returned Sa helicase inh -16.
Screening CC1=C/C(=N\S(=O)(=O)c2ccccc2)C=CC1=O returned Sa helicase inh 9 and MgrA DNA FP 38.
For Fc1ccc(-c2cn3cc(I)ccc3n2)cc1 the results were MgrA DNA FP 1.5.
CC(NC(=O)Cn1nnc(-c2cccc(C(F)(F)F)c2)n1)c1ccccc1 (stereo not drawn) was read as Sa helicase inh -13 and MgrA DNA FP -0.8.
